Ecoli growth: E. coli growth inhibition, primary screen, OD600; AID 1053175, 2014; actives 0.21% (n = 330,000); OD600 absorbance (concentration not given with the values); Escherichia coli growth, 23 h; active compounds read low;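 active = OD600 absorbance below the run mean of sample wells minus 3.6 SD, in any replicate, cut at about 0.56 in these data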;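 also: stock transfer was 300 nL into about 60 µL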
T cruzi inh: inhibitors of intracellular T. cruzi growth, primary screen, luminescence, NIH3T3 host cells | inhibition, % (no concentration beside the values) | actives 1.4% (n = 300,000) | T. cruzi beta-gal in NIH3T3, 90 h;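 active = mean inhibition across valid replicates above about 55%, limit read from the data; inconclusive = mean below that limit but half or more replicates reach it; inactive = mean below it, under half of replicates reach it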;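 also: signal also drops with host cell toxicity which is not excluded here; 0% = plate median of DMSO wells and 100% = zero luminescence signal; higher percent means less beta-gal luminescence so fewer parasites; stock transfer was 50 nL into about 50 µL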
AF4-AF9 inh: inhibitors of AF4 peptide binding to AF9, primary screen, biochemical, AlphaScreen, biotin-AF4 peptide, FLAG-AF9, single point. Protein AF-9 (Homo sapiens), P42568. inhibition, % at 10 µM. actives 0.47% (n = 350,000);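 active = every replicate reaching a set inhibition limit, whatever the replicate mean, cut at about 25% in these data; inconclusive = mean inhibition reaches that limit but some replicates miss it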;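 also: 0% = plate neutral control median and 100% = total signal loss; the record names both 10 and 1 µM as test concentration; the first replicate is given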
Target sequence (P42568 whole entry, looked up): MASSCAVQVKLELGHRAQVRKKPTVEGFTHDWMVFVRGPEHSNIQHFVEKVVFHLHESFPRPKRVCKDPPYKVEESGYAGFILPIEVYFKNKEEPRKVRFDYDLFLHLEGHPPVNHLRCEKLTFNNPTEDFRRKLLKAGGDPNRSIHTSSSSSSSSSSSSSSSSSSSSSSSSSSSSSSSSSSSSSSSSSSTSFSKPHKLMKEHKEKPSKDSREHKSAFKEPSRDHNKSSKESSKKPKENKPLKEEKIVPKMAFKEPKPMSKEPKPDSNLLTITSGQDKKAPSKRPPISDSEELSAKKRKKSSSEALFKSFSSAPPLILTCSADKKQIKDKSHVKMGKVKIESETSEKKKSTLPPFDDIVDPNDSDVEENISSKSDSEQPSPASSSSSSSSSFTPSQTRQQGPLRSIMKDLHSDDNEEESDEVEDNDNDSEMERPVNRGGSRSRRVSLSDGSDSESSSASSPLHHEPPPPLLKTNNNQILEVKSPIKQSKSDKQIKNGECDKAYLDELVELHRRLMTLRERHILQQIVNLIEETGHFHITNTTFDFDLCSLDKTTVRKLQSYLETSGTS
Ecoli rRNA inh: reduced GFP signal of wild-type E. coli, primary screen, bacterial rRNA inhibitor project, GFP/RFP fluorescence, OD600, single point; actives 1.6% (n = 350,000); E. coli WT GFP vs humanized-ribosome RFP mutants, 24 h; active compounds read low; DMSO median 0, no signal -100; GFP signal change (wild-type ribosome), % (test concentration not listed); AID 720706, 2013;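 active = significant combined selectivity score with lowered wild-type GFP, culture density cut under 30%, mutant RFP and density less affected; inactive = any of these conditions unmet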; also: one replicate is shown; some compounds called inactive have numbers as strong as hits
A1 inh: caspase 3/7 activation in MEF A1-2A-BIM cells, primary screen, A1 inhibitor project, cell-based, luminescence, HTS; Caspase-Glo 3/7 luminescence, 3 h; percent of clofoctol response, vehicle zero; caspase activation, % (test concentration not listed); actives 0.066% (n = 330,000); AID 2462, 2010;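 active = over half of replicate activation scores above 10%, or exactly half above 10 with the replicate mean above 10; inconclusive = replicate mean below 10 yet half the replicates above 10; inactive = over half of replicates below 10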;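 also: wells of about 30 µL received 50 nL stock; many hits fall short of the cut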
UCH37 inh: inhibitors of human UCH37 deubiquitinase, primary screen, biochemical, Ub-AMC cleavage, fluorescence; purified proteasome/UCH37; inhibition, % (no concentration beside the values); actives 0.33% (n = 330,000); AID 588478, 2011;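 active = mean of two replicates above 20%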;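 also: 0% = compound-free wells with enzyme and 100% = wells lacking proteasome; stock transfer was 100 nL into about 20 µL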
Target sequence (Q9Y5K5 whole entry, looked up): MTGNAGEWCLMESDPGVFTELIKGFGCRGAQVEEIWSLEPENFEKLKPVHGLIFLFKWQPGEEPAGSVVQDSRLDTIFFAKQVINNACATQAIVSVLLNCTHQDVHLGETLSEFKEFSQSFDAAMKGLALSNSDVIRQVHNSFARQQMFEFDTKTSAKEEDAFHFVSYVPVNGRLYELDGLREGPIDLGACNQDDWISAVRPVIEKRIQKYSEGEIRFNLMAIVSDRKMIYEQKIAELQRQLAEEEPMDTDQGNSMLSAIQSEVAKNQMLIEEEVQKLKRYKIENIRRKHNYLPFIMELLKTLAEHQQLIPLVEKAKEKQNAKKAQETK
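Signal – fluorescence, ex 355 nm, em 460 nm · System – Proteasome-bound UCH37 · Input – 0.15 nM proteasome as dispensed · Timing – 30 min preincubation with enzyme, 25 min cleavage at room temperature · Read-out basis – percent inhibition of cleavage signal versus uninhibited and no-proteasome wells · Medium – Tris-HCl pH 7.4 with ATP-MgCl2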
Beta cell apopt: inhibitors of cytokine-induced beta cell apoptosis, primary screen, luminescence | INS-1E cytokine-induced death, ATP luminescence, 48 h; percent of positive-control rescue, neutral wells zero | protection from apoptosis, % (concentration not given with the values) | actives 0.8% (n = 300,000);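 active = all replicates at 75% or more, or half of them and the mean; inconclusive = half reach 75% but not the mean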;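 also: 0% = cytokine-treated negative control wells and 100% = positive control rescue; higher means more ATP so stronger rescue from cytokine killing; wells of about 40 µL received 100 nL stock; the first replicate is given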
FGF22 binding: binders of human FGF22 protein, primary screen, FGF22 synaptogenesis inhibitor project, biophysical, thermal shift, single point; Fibroblast growth factor 22 (Homo sapiens), Q9HCT0; recombinant FGF22 thermal shift, SYPRO orange fluorescence; percent of sucrose octasulfate shift, DMSO zero; calls only at 9.99 µM; actives 1.5% (n = 340,000); AID 651658, 2012;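 active = melting point raised past a set limit in the mean and every replicate; inconclusive = no clear call; three in four hits are not shown here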
Target sequence (Q9HCT0 whole entry, looked up): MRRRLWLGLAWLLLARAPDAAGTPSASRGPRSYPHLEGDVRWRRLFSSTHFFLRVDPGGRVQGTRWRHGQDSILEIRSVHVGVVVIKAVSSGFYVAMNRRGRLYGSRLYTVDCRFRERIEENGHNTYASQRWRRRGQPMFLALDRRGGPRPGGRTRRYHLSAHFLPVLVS
Ecoli rRNA inh OD600: also measured in Ecoli rRNA inh; calls as there; OD600 change, %; measured here: OD600 growth;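 optical density of the mix in the first replicate; 0 = DMSO median and -100 = no signal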
Ecoli rRNA inh RFP: also measured in Ecoli rRNA inh; calls as there; RFP signal change, %; measured here: RFP humanized mutant strains;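 first replicate; 0 = DMSO median and -100 = no signal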
Active calls of the source: *; i = inactive; ? = inconclusive; / = not tested or not shown. Only part of the results is shown. The share of hits here may be higher or lower than overall.

SMILES	Ecoli rRNA inh RFP	T cruzi inh	Ecoli rRNA inh OD600	A1 inh	UCH37 inh	Ecoli rRNA inh	Ecoli growth	Beta cell apopt	AF4-AF9 inh	FGF22 binding
Cc1cccc(/C=N/NC(=O)c2ccc(NC(=O)c3ccccc3C)cc2)n1	-0.4	-7	15	-0.4	/	3	/	1	0.4	i
CCOC(=O)c1c(C)[nH]c(C)c1S(=O)(=O)N1CCC(c2ccccc2)C1 (centres undefined)	3.8	14	-10	-1.3	1.0	3	0.72	-2	9.8	i
O=C(O)CN(c1ccccc1)C1SC(=O)NC1=O (centres undefined)	/	0	/	0.3	1.0	/	0.8	-5	/	/
Cc1ccc(-n2nc3c(c2NC(=O)c2cc4ccccc4o2)CS(=O)(=O)C3)cc1	0.2	2	-16	0.1	-0.9	-15	0.69	-2	-0.5	i
CC(C)N1C(=O)C2C(C(=O)NC3CCCCC3)C3C=CC2(O3)C1C(=O)NC1CCCC1 (centres undefined)	/	-7	/	0.1	4.7	/	0.7	-3	/	/
Cc1ccsc1/C=N/N1CCOCC1	-4.2	-19	0	-0.3	/	12	/	-6	-1.5	i
O=C(c1cc(Cl)nc2ccccc12)N1CCCCC1	/	-4	/	0.6	1.9	/	0.69	4	/	/
COc1cccc(-n2nnc3c(=O)n(Cc4ccccc4Cl)cnc32)c1	-3.0	26	9	0.3	2.5	11	0.66	-4	0.7	i
Cc1nc(SC(C)C(=O)NC2CCCC2)c2ccccc2n1 (centres undefined)	/	/	/	0.5	3.7	/	0.67	-4	0.4	i
COc1cccc(OCC(=O)NCC2CCCO2)c1 (centres undefined)	/	/	/	0.3	5.3	/	0.66	-8	-3.9	i
COCCn1c(SCC(=O)N2CCOCC2)nnc1-c1ccncc1	/	-5	/	0.1	-1.4	/	0.62	-5	2.1	i
O=C(Nc1ccccn1)c1ccc(Cl)c([N+](=O)[O-])c1	0.5	-10	12	0.3	1.5	9	0.63	/	2.5	/
Cc1cccc(Cn2nnc3c2C(=O)c2ccccc2C3=O)c1	/	61*	/	-0.2	5.4	/	0.72	110*	/	/
Cc1ccc(N2CC(C(=O)Nc3ccc(S(=O)(=O)NCC4CCCO4)cc3)CC2=O)cc1C (centres undefined)	-2.2	-14	-1	0.8	-0.4	3	0.7	-8	0.2	i
COc1ccc(CNC(=O)CSCc2cccc(Cl)c2)cc1	/	10	/	-1.9	1.1	/	0.68	-2	/	/

Remaining list, next part:
SMILES	Ecoli rRNA inh RFP	T cruzi inh	Ecoli rRNA inh OD600	A1 inh	UCH37 inh	Ecoli rRNA inh	Ecoli growth	Beta cell apopt	AF4-AF9 inh	FGF22 binding
Cc1sc2nc(C3CC3)nc(SCC(=O)N3c4ccccc4CC3C)c2c1C (centres undefined)	/	30	/	1.1	3.4	/	0.73	9	/	/
N#Cc1cnc(SCC(=O)N2CCCC2)nc1N	-1.6	0	-1	0.6	-1.8	-3	0.7	-1	-3.2	i
COc1ccc(NC(=O)c2ccccc2Sc2ccc(NC(C)=O)nc2)cc1	-1.1	13	4	0.0	0.5	3	0.66	-2	-2.0	i
NC(=O)CSc1oc(-c2ccco2)nc1S(=O)(=O)c1ccccc1	0.1	-7	-6	-0.8	0.0	5	0.67	-2	-0.1	i
Cc1cccc(-n2ncc3c(NC4CCCCC4)ncnc32)c1	-7.3	31	-6	-5.7	3.0	-12	0.69	/	4.7	i
CCc1ccc(Nc2nnc(SCn3nnc4ccccc4c3=O)s2)cc1	/	/	/	-0.1	2.4	/	0.76	-4	/	/
Cc1cnc(C(=O)Nc2nnc(C(C)C)s2)cn1	/	2	/	-1.0	3.3	/	0.7	/	/	/
C#CCOCCOCCOCCNc1nc(N2CCN(C(=O)[C@H](CCCCN)n3cc([C@@H](N)CO)nn3)CC2)nc(N2CCN(C(=O)[C@H](CCCCN)n3cc([C@@H](N)CC(C)C)nn3)CC2)n1	-1.3	/	22	-1.4	2.1	19	/	4	29*	i
O=C(CN1CCCCC1)N=Nc1c(O)[nH]c2ccccc12	/	17	/	-0.5	11	/	0.64	-2	1.0	/
CC(O)c1cccc(NC(=O)Cc2cccc3ccccc23)c1 (centres undefined)	/	-9	/	0.6	0.9	/	0.64	-3	/	/
CC(SC(C)C(=O)NN=Cc1cccc(Cl)c1)C(=O)NN=Cc1cccc(Cl)c1 (centres undefined)	-2.0	/	9	/	-2.4	8	0.7	/	0.1	i
Cc1ccc(N(CC(=O)NCc2ccc3c(c2)OCO3)C(=O)c2csnn2)cc1	1.1	-6	0	0.0	7.7	1	0.68	-8	-58	i
CCC(CC)C(=O)NCc1ccccc1OC	/	-36	/	1.3	3.6	/	0.69	-3	/	/
Cc1cc2oc(C(=O)Nc3ccc(S(=O)(=O)Nc4ncccn4)cc3)c(C)c2cc1Cl	-0.3	/	17	1.0	-123	10	0.7	2	1.1	i
CCOC(=O)Nc1ccc(S(=O)(=O)N2CCC(C)CC2)cc1	0.8	-6	1	1.0	4.3	6	0.66	2	-3.7	i

(more compounds)
SMILES	Ecoli rRNA inh RFP	T cruzi inh	Ecoli rRNA inh OD600	A1 inh	UCH37 inh	Ecoli rRNA inh	Ecoli growth	Beta cell apopt	AF4-AF9 inh	FGF22 binding
CSc1ccc(-c2nc(CSCC(=O)N3CCOCC3)c(C)o2)cc1	1.7	-2	-16	1.4	-2.5	-11	0.69	-7	/	/
Brc1ccc2c(c1)CNc1c(ncnc1N1CCOCC1)O2	/	12	/	0.6	-0.4	/	0.65	6	/	/
O=Cc1ccc2noc(-c3ccc(F)cc3)c2c1	/	-12	/	0.5	-27	/	0.69	-3	/	/
CCSc1nc(-c2ccc(OC)cc2)n(-c2nc3ccccc3s2)n1	/	29	/	0.7	-9.9	/	0.72	1	/	/
CSc1nc(N)nc2c1ncn2C1OC(CO)C(O)C1O (centres undefined)	0.3	/	-6	/	4.5	-11	0.7	/	1.3	i
CC(=O)c1ccc(NC(=O)CN2C(=O)NC3(CCCc4ccccc43)C2=O)cc1 (centres undefined)	-2.1	/	-13	0.4	0.4	-8	0.61	-2	2.8	i
Cc1ccc2c(C)nc(Nc3ncc4c(n3)CCCC4=O)nc2c1	/	-7	/	0.7	6.4	/	0.7	-6	/	/
CC(=O)Nc1cccc(-n2nnc(SCC(N)=O)n2)c1	-1.3	-4	6	0.0	2.7	2	0.66	-1	-1.2	i
c1ccc2[nH]c(SCc3ccc(-c4nnco4)cc3)nc2c1	/	-10	/	-1.1	1.6	/	0.7	2	/	/
CC(=O)c1ccc(S(=O)(=O)N(CCCO)Cc2cc3cc4c(cc3[nH]c2=O)OCCO4)cc1	2.9	-5	20	-1.2	4.1	11	0.62	0	2.2	i
C[C@@H]1C=C(C(=O)O)O[C@H](OCc2ccc(CO)cc2)C1	2.0	-12	2	-0.2	2.6	-6	/	-3	-2.6	i
Cc1ccc(C(C(=O)NC2CCCC2)N(Cc2cccs2)C(=O)c2csnn2)o1 (centres undefined)	/	2	/	0.7	2.8	/	0.71	3	/	/
CCOC1CCCC(n2cnc3c(=S)nc[nH]c32)O1 (centres undefined)	1.9	/	13	/	4.3	-3	0.65	/	-2.1	i
Cc1cc(C)c(NC(=O)COC(=O)C2CCC(=O)N2)c(C)c1 (centres undefined)	-0.7	-2	2	-0.4	1.9	18	0.69	-6	-1.2	/
O=C(NCCCn1ccnc1)c1ccccc1Cl	-1.3	-1	7	0.1	0.3	6	0.68	0	-15	i

Following part.
SMILES	Ecoli rRNA inh RFP	T cruzi inh	Ecoli rRNA inh OD600	A1 inh	UCH37 inh	Ecoli rRNA inh	Ecoli growth	Beta cell apopt	AF4-AF9 inh	FGF22 binding
COC(=O)C1=C(C)N(C2CCCCC2)C(=O)/C1=C\c1cccs1	4.8	15	13	-0.7	1.8	17	0.7	2	4.7	/
N#Cc1ccc(NC(=O)COC(=O)CCNS(=O)(=O)c2ccccc2)cc1	-4.7	-7	-6	0.0	2.3	-4	0.67	-4	2.8	i
O=C(NCCN1CCOCC1)c1ccc(Cl)c(S(=O)(=O)N2CCCC2)c1	-1.7	0	13	0.3	4.0	17	0.67	-1	-2.7	i
COc1ccc(-n2nc(C(=O)NCC3CCCO3)c3ccccc3c2=O)cc1 (centres undefined)	-4.1	-2	3	-1.8	0.6	-5	0.66	-5	0.0	i
CC(=O)c1ccc(NC(=O)C(C)N(C)CC(=O)Nc2ccccc2Cl)cc1 (centres undefined)	-4.4	8	-3	-0.4	-0.8	1	0.7	9	-0.4	i
COc1ccccc1/C=C/C=N/NC(=O)c1cnccn1	0.8	-4	14	?	/	7	/	-10	-12	i
CCOc1ccc(CO[C@@H]2O[C@H](CO)[C@@H](O)[C@H](O)[C@H]2NC(C)=O)cc1OC	-6.4	6	8	0.4	3.2	7	0.68	-7	-18	i
CC(C)C[C@H](NC(=O)c1nc[nH]c1C(=O)N[C@@H](CCCCNC(=O)OC(C)(C)C)C(=O)OC(C)(C)C)C(=O)OC(C)(C)C	/	21	/	-0.1	1.5	/	/	27	6.4	i
CC(C)C(NC(=O)c1ccccc1)C(=O)NC1CCCc2ccccc21 (centres undefined)	1.1	/	18	0.4	1.1	23	0.72	-7	-0.8	i
COc1ccc(C(=O)N2CCOC2CNC(=O)C(=O)NCc2ccccc2Cl)cc1 (centres undefined)	/	-17	/	-0.4	-0.9	/	0.73	-3	-2.3	i
Cc1ccc(-n2c(Cc3ccccc3)n[nH]c2=S)c(C)c1	-11	-6	-40	-0.5	1.5	-35	0.66	-7	-6.6	i
Cc1nc(-c2ccccc2)sc1C(=O)CSc1ccc(Cl)cc1	/	/	/	-3.3	4.5	/	0.69	-10	/	/
CC(=O)Nc1ccccc1OC(C)C(=O)N1CCC(C)CC1 (centres undefined)	0.5	0	2	0.6	1.5	-3	0.73	1	-1.3	/
Cc1c(C=O)c2ccccn2c1C(=O)c1ccccc1	/	36	/	-0.1	11	/	0.67	-2	/	/
O=c1cc2c(nn1Cc1cccc([N+](=O)[O-])c1)-c1ccccc1CC2	-10	3	-16	0.3	0.0	-22	0.67	-5	10	i
O=C(Nc1cc2c3c(c1)CC(=O)N3CCC2)c1ccccc1C(F)(F)F	1.1	7	4	-0.2	-0.7	2	0.69	-6	3.9	i
O=C(Nc1ncc(C(F)(F)F)cc1Cl)c1ccc(S(=O)(=O)N2CCOCC2)cc1	2.3	16	2	0.7	2.2	12	0.65	-8	-1.2	i
C[C@@]12C(=O)N(c3cccc(Cl)c3)C(=O)N1[C@@H]1c3ccccc3OC[C@@H]1[C@H]2c1ccccc1	6.2	/	11	-1.1	-1.4	12	/	1	43*	i
